Screening data from PubChem BioAssay.
FGF22 binding – binders of recombinant human FGF22 by thermal shift | Q9HCT0 | SYPRO orange fluorescence; percent of sucrose octasulfate shift, DMSO zero | calls only at 9.99 µM | hit rate 1.5% among 340,000 | AID 651658;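 active = melting point raised past a set limit in the mean and every replicate; inconclusive = no clear call; three in four hits are not shown here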
Target sequence (Q9HCT0 whole entry, looked up): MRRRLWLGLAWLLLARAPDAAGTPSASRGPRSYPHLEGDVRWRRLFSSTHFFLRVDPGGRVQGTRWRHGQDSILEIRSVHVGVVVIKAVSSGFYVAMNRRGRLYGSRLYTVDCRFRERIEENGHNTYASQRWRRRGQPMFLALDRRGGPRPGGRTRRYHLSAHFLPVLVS
AF4-AF9 inh – MLL-AF4/AF9 protein interaction inhibition; P42568; AlphaScreen, biotin-AF4 peptide binding to FLAG-AF9; inhibition, % at 10 µM; hit rate 0.47% among 350,000; AID 651704;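 active = every replicate reaching a set inhibition limit, whatever the replicate mean, cut at about 25% in these data; inconclusive = mean inhibition reaches that limit but some replicates miss it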;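 note: 0% = plate neutral control median and 100% = total signal loss; the record names both 10 and 1 µM as test concentration; the first replicate is given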
Target sequence (P42568 whole entry, looked up): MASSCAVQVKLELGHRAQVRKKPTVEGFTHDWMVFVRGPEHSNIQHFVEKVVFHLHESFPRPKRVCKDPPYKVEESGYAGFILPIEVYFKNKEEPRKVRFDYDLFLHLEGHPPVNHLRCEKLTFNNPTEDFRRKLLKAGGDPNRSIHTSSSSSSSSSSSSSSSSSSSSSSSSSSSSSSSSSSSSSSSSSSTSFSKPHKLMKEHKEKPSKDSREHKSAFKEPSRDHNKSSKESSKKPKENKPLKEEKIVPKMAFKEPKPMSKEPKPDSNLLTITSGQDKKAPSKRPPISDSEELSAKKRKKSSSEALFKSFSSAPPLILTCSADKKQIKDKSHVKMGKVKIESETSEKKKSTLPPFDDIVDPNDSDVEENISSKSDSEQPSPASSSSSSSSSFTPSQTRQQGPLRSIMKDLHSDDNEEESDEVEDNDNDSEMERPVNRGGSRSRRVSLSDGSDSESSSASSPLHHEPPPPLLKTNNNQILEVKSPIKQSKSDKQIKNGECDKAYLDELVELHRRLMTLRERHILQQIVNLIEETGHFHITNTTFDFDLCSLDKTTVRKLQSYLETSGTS
Calb FLC – affects C. albicans growth with fluconazole; C. albicans CaCi-2 (fluconazole-resistant clinical isolate) + fluconazole, Alamar Blue growth, 48 h; growth inhibition, % (test concentration not listed); hit rate 0.57% among 300,000; AID 1979;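 active = most replicates above 75%; inconclusive = exactly half above 75%; inactive = most below 75%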;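 note: all wells also contain fluconazole at 8 µg/ml as a sub-toxic cotreatment; 0% = median of DMSO wells and 100% = median of geldanamycin control wells; wells of about 8 µL received 7.5 nL stock; the first replicate is given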
rRNA inh HTS – selective bacterial rRNA inhibition in E. coli; E. coli WT GFP vs humanized-ribosome RFP mutants, fluorescence, 24 h; stronger effect = lower value; DMSO median 0, no signal -100; GFP signal change (wild-type ribosome), % (test concentration not listed); AID 720706; hit rate 1.6% among 350,000;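 active = significant combined selectivity score with lowered wild-type GFP, culture density cut under 30%, mutant RFP and density less affected; inactive = any of these conditions unmet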; note: one replicate is shown; some compounds called inactive have numbers as strong as hits
ALR inh – human ALR oxidase inhibition via reduced H2O2. AID 485317. hit rate 3.8% among 290,000. P55789. purified ALR, DTT oxidation, H2O2 HRP-luminol luminescence. inhibition, % (test concentration not listed);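 active = mean and each replicate at 75% or more; inconclusive = only one of the two met; inactive = neither met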;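 note: stock transfer was 7.5 nL into about 7.5 µL; 0% = neutral wells and 100% = wells with inactivated enzyme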
Target sequence (P55789 whole entry, looked up): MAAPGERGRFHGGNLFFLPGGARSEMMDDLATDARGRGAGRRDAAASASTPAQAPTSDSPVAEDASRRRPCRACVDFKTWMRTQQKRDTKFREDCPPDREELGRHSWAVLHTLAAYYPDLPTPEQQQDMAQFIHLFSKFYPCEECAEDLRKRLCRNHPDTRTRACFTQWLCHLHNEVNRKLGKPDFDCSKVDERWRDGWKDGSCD
RanGTP-Impb inh – inhibitors of RanGTP-importin-beta interaction, primary screen, biochemical, FRET, CFP-Ran, YFP-importin-beta, homogeneous; cell-free CFP-Ran/YFP-importin-beta FRET ratio; inhibition, % (no concentration beside the values); hit rate 1.1% among 300,000;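 active = most replicates above 15%; inconclusive = exactly half above 15%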;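 note: 0% = DMSO wells and 100% = Ran loaded with GDP instead of GTP; wells of about 40 µL received 100 nL stock; the first replicate is given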
Beta apoptosis – blocks beta cell apoptosis; hit rate 0.8% among 300,000; INS-1E cytokine-induced death, ATP luminescence, 48 h; percent of positive-control rescue, neutral wells zero; protection from apoptosis, % (concentration not given with the values); AID 435005;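 active = all replicates at 75% or more, or half of them and the mean; inconclusive = half reach 75% but not the mean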;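 note: 0% = cytokine-treated negative control wells and 100% = positive control rescue; higher means more ATP so stronger rescue from cytokine killing; wells of about 40 µL received 100 nL stock; the first replicate is given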
T cruzi inh – blocks replication of Trypanosoma cruzi | T. cruzi beta-gal in NIH3T3, luminescence, 90 h | inhibition, % (test concentration not listed) | hit rate 1.4% among 300,000 | AID 1885;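 active = mean inhibition across valid replicates above about 55%, limit read from the data; inconclusive = mean below that limit but half or more replicates reach it; inactive = mean below it, under half of replicates reach it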;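 note: signal also drops with host cell toxicity which is not excluded here; 0% = plate median of DMSO wells and 100% = zero luminescence signal; higher percent means less beta-gal luminescence so fewer parasites; stock transfer was 50 nL into about 50 µL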
rRNA inh HTS OD600 – also measured in rRNA inh HTS; calls as there; OD600 change, %; measured here: OD600 growth;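 optical density of the mix in the first replicate; 0 = DMSO median and -100 = no signal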
rRNA inh HTS RFP – also measured in rRNA inh HTS; calls as there; RFP signal change, %; measured here: RFP humanized mutant strains;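 first replicate; 0 = DMSO median and -100 = no signal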
Active calls of the source: *; i = inactive; u = inconclusive; x = not tested or not shown.

SMILES	FGF22 binding	AF4-AF9 inh	Calb FLC	rRNA inh HTS	rRNA inh HTS OD600	rRNA inh HTS RFP	ALR inh	RanGTP-Impb inh	Beta apoptosis	T cruzi inh
O=C(NC1CCc2ccccc21)c1cc(COc2ccc(F)cc2Cl)on1 (stereo not given)	i	0.6	-5	3	2	-2.2	x	4.6	5	22
CCC1CCCCN1C(=O)CSc1nc2ccsc2c(=O)n1Cc1ccccc1 (stereo not given)	x	x	-1	x	x	x	-12	-2.4	18	22
OCCNc1nc2ccccc2[nH]1	x	x	18	x	x	x	-2	2.2	4	0
Cc1c(NS(=O)(=O)c2ccc(Cl)c(C(=O)OC(C)C(=O)N3CCOCC3)c2)c(=O)n(-c2ccccc2)n1C (stereo not given)	i	-1.8	6	13	11	0.9	-3	4.7	-3	-6
CCOC(=O)NCCc1ccc(OC)cc1	x	x	2	x	x	x	-11	-6.0	-6	-4
CN(CC(=O)Nc1ccc(Cl)c(C(F)(F)F)c1)C(=O)Cn1cc([N+](=O)[O-])ccc1=O	i	-6.6	x	-15	-20	9.3	-6	x	2	x
CCOC(=O)c1oc2ccccc2c1NC(=O)Cc1cccs1	x	x	-21	x	x	x	6	-1.3	0	5
O=C(c1cccc(Cl)c1)C1CCCN(C(=O)c2ccoc2)C1 (stereo not given)	i	0.2	5	-5	-8	-1.0	37	-1.5	-4	-8
CCC(=O)NCC(c1cccs1)S(=O)(=O)c1ccc(C)cc1 (stereo not given)	i	2.2	-14	8	3	-3.4	-1	2.1	1	1
O=C(CCCN1C(=O)C(c2ccccc2)Oc2cccnc21)NCc1ccccc1F (stereo not given)	i	-3.6	2	-8	-8	1.0	-32	0.6	2	3
c1ccc(-c2noc(CN3CCN(C(c4ccccc4)c4ccccc4)CC3)n2)cc1	x	x	-1	x	x	x	-4	-5.5	6	14
O=C(c1ccc2c(c1)N(Cc1ccc(F)cc1)C(=O)CS2)N1CCOCC1	x	x	1	x	x	x	-31	-1.3	5	5
CCN(CC(=O)Nc1c(F)cccc1F)C(=O)Cc1ccccc1	i	-0.5	4	0	9	-1.5	-2	1.5	-1	-4
COc1cc(-c2nnc(COc3ccc4ccccc4c3)o2)cc(OC)c1OC	x	x	36	x	x	x	-4	-0.1	4	33
CCCCOC(=O)/C=C/c1c(C)[nH]c(=O)[nH]c1=O	i	1.4	0	-34*	-27*	-10*	-4	3.0	-6	-1
COc1cc(/C=N/NC(=O)c2cccc(C(=O)N/N=C/c3ccc(O)c(OC)c3)n2)ccc1O	i	0.1	-12	7	15	-0.8	2	-3.1	-1	-2
COc1ccc(CNC(=O)C(CC(C)C)NC(=O)c2ccccc2C)cc1 (stereo not given)	i	-1.3	13	3	2	0.1	12	2.7	x	-13
C=CCn1cnc2scc(-c3ccc(OC)cc3)c2c1=O	i	2.1	14	-6	-9	-2.5	6	2.8	-9	1
O=S(=O)(Nc1nc2ccc(Cl)cc2s1)c1cccs1	x	x	15	x	x	x	-5	1.8	-3	1
CC(=O)N1CCN(c2nnc(-c3ccc(C)cc3)c3ccccc23)CC1	i	-1.5	9	-11	-3	0.1	-3	1.8	3	-7
CCCSc1ccc([C@H]2N[C@@](C)(C(=O)OC)[C@H]3C(=O)N(C)C(=O)[C@@H]23)cc1OC	i	-0.7	-8	1	-3	-2.1	1	1.7	x	10
Cc1cccc(Nc2nc(N)c(C#N)c(CC#N)c2C#N)c1	x	x	5	x	x	x	18	2.9	-9	2
COCC(C)N1CC(O)=C(c2nc(-c3ccc(Cl)cc3)cs2)C1=N (stereo not given)	i	-1.1	17	23	12	3.4	-10	-0.8	9	-6
CCOc1cc(N2CCOCC2)c(OCC)cc1NC(=O)c1cc(S(=O)(=O)N2CCOCC2)ccc1F	i	11	x	11	20	-1.0	-11	x	8	x
CC(=O)Nc1ccc2sc(NC(=O)CN3CCOCC3)nc2c1	i	-8.5	-5	13	-7	0.0	-3	3.6	x	-3
c1coc(-c2nnc(-c3ccc4c(c3)OCO4)o2)c1	i	-57	-19	6	-24	2.2	x	-3.2	x	x
O=C(C1CCCC1)N1CCCC(Nc2ccc(F)cc2)C1 (stereo not given)	i	-3.0	1	5	13	3.6	99*	1.2	-2	-5
O=C(CSc1ccc2ccccc2c1)NCc1cccs1	i	5.4	6	-6	-9	-5.0	63	1.4	-10	20
Cc1cc(C)c(C)c(S(=O)(=O)N2CCN(Cc3nc4ccccc4[nH]3)CC2)c1C	x	x	7	x	x	x	-4	-0.8	-3	14
Cc1sc(NC(=O)CSc2nnc(CCNC(=O)c3cccs3)n2C)nc1-c1ccccc1	x	x	21	x	x	x	-10	x	-5	-3
CCc1cc(Cn2nc(-c3ccccc3)cc2C(=O)O)on1	i	1.3	-3	4	-1	-0.1	1	1.3	-2	-20
Cn1c(=O)n(C)c2cc([N+](=O)[O-])c(N3CCN(S(=O)(=O)c4ccc5ccccc5c4)CC3)cc21	x	x	5	x	x	x	-5	-3.3	0	11
CCOC(=O)C1(CCOC)CCN(Cc2ccccc2-c2ccco2)CC1	i	2.2	8	7	14	1.7	-16	-4.0	6	1
Cc1ccc2c(c1)C(c1ccccc1)N(C(=O)c1cc3ccccc3oc1=O)CC(=O)N2 (stereo not given)	i	7.4	0	-13	-2	-2.2	x	2.7	-6	-5
COc1ccc(OCCn2cc(/C=C(\C#N)C(=O)NCc3ccco3)c3ccccc32)cc1	i	1.5	-26	17	6	5.0	30	71*	4	-1
CCN1CCN(S(=O)(=O)c2ccc(Cl)c(C(=O)Nc3nnc(CC(C)C)s3)c2)CC1	x	x	-29	-16	-15	-2.0	11	-6.6	-3	-7
NNC(=O)C1COc2cc3ccccc3cc2O1 (stereo not given)	i	-0.3	-7	-1	1	-2.5	11	2.4	x	-11
Cc1c(C)n2c3c(cccc13)CC2	i	-7.6	-10	5	14	1.3	-15	u	-7	-8
COC(=O)/C(=C(O)\C=C\c1ccccc1[N+](=O)[O-])c1nc2ccccc2[nH]1	i	0.4	-5	-4	13	9.4	x	-5.2	6	33
CC(C)CC(NC(N)=O)C(=O)Nc1ccc(Oc2ccccc2)cc1 (stereo not given)	i	2.2	13	-3	5	5.1	1	-3.6	-4	1
Cc1cc(C2=NNC(=NC3CCCCC3)SC2)c(C)n1-c1c(C)n(C)n(-c2ccccc2)c1=O	i	0.6	-42	13	15	0.8	-14	1.0	8	5
C=CCNC(=O)c1onc(CSc2cccc3ccccc23)c1C(=O)O	i	-5.9	-7	-29	-58	-10	40	0.1	2	-17
Cn1c(=O)[nH]c(=O)c2c1nc(CN1CCOCC1)n2CCc1ccccc1	x	x	-14	x	x	x	2	-2.0	x	10
COC(=O)c1ccccc1NC(=O)C1CCN(S(=O)(=O)c2cc(OC)ccc2OC)CC1	x	x	-7	x	x	x	-8	-3.2	3	2
Cc1ccc(NC(=O)CSc2nnc3ccccn23)cc1S(=O)(=O)N1CCOCC1	i	-0.5	-6	-26	-24	-10	x	u	2	-16

With a hit mark in RanGTP-Impb inh, among the entries above:
Molecule | FGF22 binding | AF4-AF9 inh | rRNA inh HTS | rRNA inh HTS OD600 | rRNA inh HTS RFP | ALR inh | RanGTP-Impb inh
COc1ccc(OCCn2cc(/C=C(\C#N)C(=O)NCc3ccco3)c3ccccc32)cc1 | i | 1.5 | 17 | 6 | 5.0 | 30 | 71*

Given with values under each structure: 9 of the compounds above
Sequence of screens – FGF22 binding | AF4-AF9 inh | Calb FLC | rRNA inh HTS | rRNA inh HTS OD600 | rRNA inh HTS RFP | ALR inh | RanGTP-Impb inh | Beta apoptosis | T cruzi inh
- CCc1cc(Cn2nc(-c3ccccc3)cc2C(=O)O)on1
    i | 1.3 | -3 | 4 | -1 | -0.1 | 1 | 1.3 | -2 | -20
- Cn1c(=O)n(C)c2cc([N+](=O)[O-])c(N3CCN(S(=O)(=O)c4ccc5ccccc5c4)CC3)cc21
    x | x | 5 | x | x | x | -5 | -3.3 | 0 | 11
- CCOC(=O)C1(CCOC)CCN(Cc2ccccc2-c2ccco2)CC1
    i | 2.2 | 8 | 7 | 14 | 1.7 | -16 | -4.0 | 6 | 1
- Cc1ccc2c(c1)C(c1ccccc1)N(C(=O)c1cc3ccccc3oc1=O)CC(=O)N2 (stereo not given)
    i | 7.4 | 0 | -13 | -2 | -2.2 | x | 2.7 | -6 | -5
- COc1ccc(OCCn2cc(/C=C(\C#N)C(=O)NCc3ccco3)c3ccccc32)cc1
    i | 1.5 | -26 | 17 | 6 | 5.0 | 30 | 71* | 4 | -1
- CCN1CCN(S(=O)(=O)c2ccc(Cl)c(C(=O)Nc3nnc(CC(C)C)s3)c2)CC1
    x | x | -29 | -16 | -15 | -2.0 | 11 | -6.6 | -3 | -7
- NNC(=O)C1COc2cc3ccccc3cc2O1 (stereo not given)
    i | -0.3 | -7 | -1 | 1 | -2.5 | 11 | 2.4 | x | -11
- Cc1c(C)n2c3c(cccc13)CC2
    i | -7.6 | -10 | 5 | 14 | 1.3 | -15 | u | -7 | -8
- COC(=O)/C(=C(O)\C=C\c1ccccc1[N+](=O)[O-])c1nc2ccccc2[nH]1
    i | 0.4 | -5 | -4 | 13 | 9.4 | x | -5.2 | 6 | 33

The results go on.
SMILES	FGF22 binding	AF4-AF9 inh	Calb FLC	rRNA inh HTS	rRNA inh HTS OD600	rRNA inh HTS RFP	ALR inh	RanGTP-Impb inh	Beta apoptosis	T cruzi inh
CN(C)c1ccc(/C=N\S(=O)(=O)c2ccccc2)cc1	x	x	0	x	x	x	0	u	-6	5
O=C(NCCO)NC(=S)c1ccccc1	x	x	0	x	x	x	19	11	-6	-5
COC(=O)CN1C(=S)N(c2ccc(OC)cc2)C(=O)/C1=C/c1ccc(OC)cc1	i	13	28	-12	2	-2.2	0	5.4	-10	3
CC(C)n1nc(C(=O)Nc2ccc3c(c2)OCO3)c2ccccc2c1=O	i	-2.1	x	18	12	-1.7	-3	x	-4	x
COc1ccc(-c2nnc(SCC(=O)c3cccs3)o2)cc1	x	x	2	x	x	x	2	4.7	3	11
N#Cc1cccc(C(=O)N(CCc2ccccc2)Cc2cccs2)c1	i	-10	4	-21	-38	-6.7	-10	3.9	-3	4
COc1ccc([N+](=O)[O-])cc1/C=N/Nc1nc(N2CCCCC2)nc(N2CCCCC2)n1	x	7.5	-4	1	5	-3.2	-7	0.3	8	27
CN1CCN(C(N)=NC(=O)c2ccccc2)CC1	i	4.2	-3	4	1	-1.7	-4	-1.4	-3	6
Cc1ccc(S(=O)(=O)n2nc(-c3cccnc3)nc2N)cc1	x	x	29	x	x	x	-1	-3.0	-3	-6
CC(C)c1ccccc1NC(=O)COC(=O)c1cccnc1	i	2.9	-17	6	15	0.4	1	-5.5	-1	0
COc1ccc(NS(=O)(=O)c2cccc(C(=O)N3CCN(Cc4cc(OC)ccc4OC)CC3)c2)cc1	i	4.4	3	-12	-13	1.9	9	-1.0	3	17
CC1CN(C(=O)C2CCCN2S(=O)(=O)c2ccc(Cl)cc2)CC(C)O1 (stereo not given)	i	5.2	3	6	9	3.4	2	-1.6	1	9

A portion of the library (hit frequency here may not be typical).
